High-throughput results from PubChem.
Env fusion inh: inhibitors of HIV Env-mediated cell fusion; HeLa-JRFL Env/CEM21 cell fusion, luciferase; inhibition, % at 12.3 µM; 360,000 compounds, 1.1% hits;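 active = mean replicate inhibition score of at least 50 and every replicate individually at or above 50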;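 note: 0% = plate neutral controls and 100% = maraviroc near 300 nM; one replicate is shown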
MT1-MMP act inh: inhibitors of human MT1-MMP activation | HT1080 RFP-PRO-GFP cells, GFP/RFP ratio fluorescence, overnight; percent of plate control window, DMSO zero | GFP/RFP ratio change, % at 20 µM | 360,000 compounds, 0.061% hits;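 active = GFP/RFP ratio change of at least 30% with cell ATP level not reduced by more than half and red fluorescence within 50% of control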; note: strong numbers were not always called active
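Test system: HT1080 RFP-PRO-GFP cells; Benchmarks: DMSO and RFP-L50D-GFP cell wells; Timing: cells overnight before dosing, compound overnight, 37 °C, 5% CO2; Compound: one 20 µM compound dose with 1% DMSO; Read-out: GFP/RFP fluorescence ratio.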
CSC inhib: cancer stem cell inhibition | cancer stem cell-like cells viability, luminescence | inhibition, % at 7.5 µM | 300,000 compounds, 1.1% hits;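 active = mean at 75% or more and at least half the replicates too; tested in HMLE shEcad cells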;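 note: 0% = median of negative and 100% = median of positive control wells; the first replicate is given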
Rce1 inhib: yeast Ras-converting enzyme inhibition; Q03530; yeast membranes, quenched prenylated peptide cleavage fluorescence; calls only; 290,000 compounds, 0.27% hits; AID 2563;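 active = fall in fluorescence gain of 50% or more versus controls, with final raw signal at or below 3038400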;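 note: plate controls were neutral control wells for no effect and wells lacking membranes for full effect; tested at 10 µM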
Target sequence (Q03530 whole entry, looked up): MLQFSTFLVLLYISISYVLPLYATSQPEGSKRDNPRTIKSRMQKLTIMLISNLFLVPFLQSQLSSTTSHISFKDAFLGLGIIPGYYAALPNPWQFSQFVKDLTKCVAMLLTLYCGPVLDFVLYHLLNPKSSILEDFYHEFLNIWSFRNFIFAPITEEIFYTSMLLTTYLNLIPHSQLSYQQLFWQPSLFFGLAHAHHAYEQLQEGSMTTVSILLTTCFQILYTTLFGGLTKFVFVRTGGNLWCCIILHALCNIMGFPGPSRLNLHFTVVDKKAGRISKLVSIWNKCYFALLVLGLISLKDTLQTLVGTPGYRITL
Yeast UUG start: alters start codon recognition fidelity in yeast; activity score, % at 18.7 µM; 350,000 compounds, 0.13% hits; AID 602363; S. cerevisiae UUG-firefly luciferase reporter, luminescence/redox ratio;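 active = replicate mean at a twofold rise or more, about +100% in these data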;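 note: firefly luciferase made from a UUG start codon reports start codon fidelity; reporter light over untreated wells divided by growth signal over untreated wells; some hits fall short of that in this replicate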
eIF4H inh: inhibitors of RNA binding by human eIF4H; Q15056; eIF4H fluorescence polarization binding assay; inhibition, % at 35 µM; 290,000 compounds, 0.94% hits; AID 2012;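 active = 50% or more with normal probe brightness, or confirmed in later tests; about a fifth of its hits are not listed in these tables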;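 note: calls also rest on retests at 20 µM and on dose response follow-up; 0% = protein and probe with vehicle and 100% = probe without protein; strong numbers were not always called active; many hits fall short of the cut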
PABP polyA inh: PABP-poly(A) binding inhibition; inhibition, % at 35 µM; P11940; PABP-poly(A) RNA binding, fluorescence polarization; AID 2014; 290,000 compounds, 1% hits;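 active = 50% or more with normal probe brightness, or confirmed in later tests; about a fifth of its hits are not listed in these tables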;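 note: calls also rest on retests at 20 µM and on dose response follow-up; controls were probe without protein and protein plus probe with vehicle; some compounds called inactive have numbers as strong as hits; many hits fall short of the cut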
Target sequence (P11940 whole entry, looked up): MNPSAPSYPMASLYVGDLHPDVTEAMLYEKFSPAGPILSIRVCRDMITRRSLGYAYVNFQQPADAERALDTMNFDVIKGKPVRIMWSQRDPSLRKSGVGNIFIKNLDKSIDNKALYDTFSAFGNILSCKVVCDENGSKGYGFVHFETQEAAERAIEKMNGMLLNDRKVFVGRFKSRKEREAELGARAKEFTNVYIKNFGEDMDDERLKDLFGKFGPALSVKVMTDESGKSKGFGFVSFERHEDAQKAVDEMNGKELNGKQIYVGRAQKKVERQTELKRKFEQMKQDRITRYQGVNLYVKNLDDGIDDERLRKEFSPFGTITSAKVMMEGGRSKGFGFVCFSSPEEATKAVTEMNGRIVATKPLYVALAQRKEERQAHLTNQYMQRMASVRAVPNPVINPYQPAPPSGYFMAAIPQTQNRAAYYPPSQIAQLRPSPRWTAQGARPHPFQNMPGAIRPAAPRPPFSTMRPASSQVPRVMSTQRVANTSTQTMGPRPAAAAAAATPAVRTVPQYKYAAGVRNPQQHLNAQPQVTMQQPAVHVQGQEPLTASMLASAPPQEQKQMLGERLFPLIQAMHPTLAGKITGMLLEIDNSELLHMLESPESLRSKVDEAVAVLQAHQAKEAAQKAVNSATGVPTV
eIF4H inh retest: second read-out of eIF4H inh, no call of its own (marks repeat the call); inhibition, %; compound at 20 µM; confirmation average;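 mean of two retest wells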
PABP polyA inh retest: further read-out of PABP polyA inh, marked with its call; inhibition, %; compound at 20 µM; confirmation repeats;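 mean of two retest wells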
MT1-MMP act inh RFP: recorded beside MT1-MMP act inh, whose call it bears; RFP signal change, %; measured here: RFP expression control read;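 0 = vehicle wells; hits needed this value within 50% of zero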
Starred values were filed as active, the others as inactive; i = inactive; x = no result given; [ ] = remark or other dose. An excerpt; count on the stated rates, not on these rows.

SMILES	Env fusion inh	MT1-MMP act inh	MT1-MMP act inh RFP	CSC inhib	Rce1 inhib	Yeast UUG start	eIF4H inh	PABP polyA inh	others
CC(=O)c1ccccc1C(=O)NCc1cccnc1	-21.6	-1.2	4.1	9.3	i	-13.1	-0.2	-7.0
COc1cccc(N2CCN(C(=S)NCCc3ccccc3)CC2)c1	-14.6	3.2	-0.9	-7.5	i	1.1	-2.5	-10.7
Cc1ccc(S(=O)(=O)N2CCN(C(=O)CSc3nnc(C)c(=O)[nH]3)CC2)cc1	-13.3	-3.5	2.9	4.1	i	13.7	-5.8	6.3
NC(=O)CC(NC(=O)Cc1ccc(Br)cc1)c1ccc(NCCc2ccc(F)cc2)c([N+](=O)[O-])c1 (configuration not stated)	38.6	4.8	-4.3	7.9	i	-20.6	13.2	-14.9
CN1OC[C@@H]2CN(C(=S)Nc3ccc(C#N)cc3)[C@H](c3ccc(N4CCCCC4)cc3)C[C@@H]21	0.9	0.9	-2.0	x	x	-5.3	x	x
N#C/C(=C\c1ccc(OCc2ccc(Br)cc2)cc1)C(=O)Nc1cccc(C(=O)O)c1	-65.1	0.6	-2.2	-9.8	i	4.9	4.5	-0.4
CN(C)C(=O)N=NC(=O)N(C)C	-13.9	4.0	5.0	-6.7	x	-22.1	x	x
O=C(Nc1ccc(N2CCOCC2)cc1)c1ccc2c(c1)OCO2	-9.5	-3.1	-1.5	16.8	i	x	-1.2	-1.3
COc1ccccc1-n1cc(C(=O)c2cc(Cl)ccc2O)cc(C#N)c1=O	-2.5	-17.0	-1.5	9.2	i	-16.4	0.5	12.2
O=C(N[C@H]1C=C[C@H](CC(=O)N2CCCCC2)O[C@@H]1CO)c1cccc(F)c1	-3.7[16.7 µM]	2.5	1.0	x	x	9.9	x	x
CNc1ccccc1C(C)(C)c1cc(-c2cccc(Br)c2)no1	23.2	62.0*	27.8*	15.4	i	-24.2	49.3	3.2
COc1ccccc1C(=O)NCC(=O)OCC(=O)N1CC(C)OC(C)C1 (configuration not stated)	-13.0	0.3	4.6	x	x	-11.4	x	x
Cc1cccc(C)c1NC(=O)c1ccc(-c2cc(F)ccc2F)o1	-5.5	-1.3	-4.2	x	x	0.8	x	x
CC(C)[C@H](NC(=O)c1ccc(Cl)cc1)C(=O)Nc1cccc(S(=O)(=O)N2CCOCC2)c1	-77.1	-21.5	-23.1	x	x	-14.2	x	x
O=C(c1ccc2c3c(cccc13)CC2)N1CCOCC1	x	3.0	5.1	-5.6	i	-7.0	-6.6	-2.1
CC(C)=CC(=O)Nc1ccc(Cl)cc1	-40.2	5.6	-1.2	7.2	i	x	0.7	-10.1
Cc1ccc(CS(=O)(=O)CCC(=O)NCCC(C)C)cc1	-6.4	2.1	4.3	-10.3	i	-14.6	-0.8	4.8
S=C(Nc1ccc(Cl)c(Cl)c1)N1CCCC1	-1.6	-4.4	-3.0	7.1	i	-15.9	7.7	0.5
Cc1ccc(NC(=O)CSCC(=O)OC(C)C(=O)Nc2ccc(S(N)(=O)=O)cc2)c(C)c1 (configuration not stated)	23.3	0.2	2.4	-9.8	i	x	x	x
CC[C@]12C(=O)N(C)C[C@H]([C@@H]3C(=O)N(C)C(=O)[C@@H]31)N2C(=O)c1ccc(C(F)(F)F)cc1	30.3	-1.3	-0.6	x	x	-2.9	x	x
COc1cc([C@@H]2OC[C@@H]3[C@H]2CO[C@@H]3c2ccc3c(c2)OCO3)ccc1O	3.8	5.5	-0.3	16.3	x	-16.7	x	x
CC1CCCN(c2nc3c(c(=O)[nH]c(=O)n3C)n2CCSc2nc3ccccc3o2)C1 (configuration not stated)	-0.7	-5.6	-0.7	-9.6	i	-1.8	-2.9	1.0
CC1CCN(CCCCOc2cccc(Br)c2)CC1	10.6	7.6	4.0	46.1	i	x	12.0	6.9
CCCCN1C(=O)NC(c2ccc(OC)cc2)C(C(=O)OCc2ccccc2)=C1C (configuration not stated)	16.3	0.4	-8.4	-2.1	i	-10.0	2.2	6.7
Cc1csc(SCC(=O)NC(=O)Cc2ccccc2)n1	6.4	0.1	3.6	-15.2	i	x	-0.3	4.7
O=C(CSc1nnc(C2CCCCC2)o1)Nc1ccccc1Cl	-19.9	7.4	2.0	-4.3	i	17.2	1.4	2.0
Clc1ccccc1-c1ccc(CN2CCN(c3ccccc3)CC2)o1	x	-2.3	-1.5	-6.9	i	x	-8.6	19.5
Cc1nnc(NC2=NCCCCC2)o1	-112.7	8.0	7.5	-11.7	i	-1.4	-5.1	-0.4
Cc1ccc2c(Cl)cc(Cl)c(OCC(=O)NC(C)(C)C)c2n1	-4.2	0.6	2.0	-3.4	i	x	-1.5	-5.4
COC(=O)[C@H]1CN(C(=O)c2ccccc2)C(=O)N1	-29.9	4.8	3.3	-1.7	i	-14.4	9.2	13.9
O=C(N/C(=C/c1ccc(F)cc1)C(=O)N1CCCCC1)c1ccco1	16.3	3.3	3.9	4.4	i	-8.7	2.1	10.5
CCCCn1c(N)c(N(CC)C(=O)/C=C/c2ccco2)c(=O)[nH]c1=O	1.6	-4.7	4.4	-4.8	i	x	2.9	6.0
Cc1ccc2cc(/C=N/NC(=O)[C@H]3C[C@@H]3c3ccccc3)c(Cl)nc2c1	-9.8	2.6	0.5	6.4	i	x	78.7	-3.4	eIF4H inh retest=15.4;PABP polyA inh retest=47.5
COc1ccc(N2C3=C(C(=O)CC(C)(C)C3)C(c3ccccc3OC)C3=C2CC(C)(C)CC3=O)cc1	13.6	-1.6	-3.8	-14.5	i	2.0	11.5	-0.9
CC(=O)Oc1ccc(C(=O)[C@H]2[C@H]3C(=O)N(c4cccc5ccccc45)C(=O)[C@H]3[C@@H]3C=CC=NN32)cc1	16.0	-19.6	6.5	-38.0	i	x	14.2	3.8
CC(=O)N1CCC2(CC1)C(C#N)=C(N)Oc1n[nH]c(C(F)(F)F)c12	x	6.0	0.9	9.9	i	x	11.4	-1.4
O=C(CSc1nc2ccccc2c(=O)n1Cc1ccco1)NCc1ccccc1	-45.4	-59.4	-58.9	1.9	i	-11.6	x	x
NC(=O)c1ccc2nc(-c3ccccc3)c(-c3ccccc3)nc2c1	-2.1	3.0	-1.2	-12.2	i	-14.5	4.8	-5.7
Cc1ccc(Cl)c(NC(=O)COC(=O)c2nn(C)c(=O)c3ccccc23)c1Cl	-6.5	-0.9	-2.3	-4.8	x	-18.5	x	x
Cc1cc(C)c(S(=O)(=O)Nc2nccs2)c(C)c1	1.0	-1.8	0.3	-17.1	i	-2.0	3.9	-2.9

Brought forward from above: four entries; new compounds follow.
SMILES	Env fusion inh	MT1-MMP act inh	MT1-MMP act inh RFP	CSC inhib	Rce1 inhib	Yeast UUG start	eIF4H inh	PABP polyA inh	others
O=C(CSc1nc2ccccc2c(=O)n1Cc1ccco1)NCc1ccccc1	-45.4	-59.4	-58.9	1.9	i	-11.6	x	x
NC(=O)c1ccc2nc(-c3ccccc3)c(-c3ccccc3)nc2c1	-2.1	3.0	-1.2	-12.2	i	-14.5	4.8	-5.7
Cc1ccc(Cl)c(NC(=O)COC(=O)c2nn(C)c(=O)c3ccccc23)c1Cl	-6.5	-0.9	-2.3	-4.8	x	-18.5	x	x
Cc1cc(C)c(S(=O)(=O)Nc2nccs2)c(C)c1	1.0	-1.8	0.3	-17.1	i	-2.0	3.9	-2.9
CCN(CC)c1ncnnc1-c1ccccc1	-44.7	6.1	5.0	-14.5	i	-10.6	0.4	6.0
CC1CN(S(=O)(=O)c2ccccc2)C(C)CN1S(=O)(=O)c1ccccc1 (configuration not stated)	-7.2	9.0	6.0	x	i	-7.1	2.6	-6.2
N#C/C(=C\c1ccc(-c2ccc(F)cc2)o1)C(=O)Nc1nc(-c2cccs2)cs1	-16.5	-15.8	-1.4	12.3	i	x	27.9	12.5
CN1CCN(S(=O)(=O)c2ccc(NS(=O)(=O)c3ccccc3)cc2)CC1	4.1	-4.6	-1.6	-11.7	i	-3.1	-4.0	-0.7
COC(=O)Cn1cnc2c(nnn2-c2ccc(C)cc2)c1=O	-21.6	4.9	2.8	4.1	i	-7.9	-8.8	18.7
CC(C)(/C=N/O)N(O)C=C1C=CC(=O)C=C1	10.3	-2.2	1.1	0.3	i	-20.5	4.4	13.6
COc1ccc(OCc2cc(C(=O)N(C)Cc3cc(C4CC4)n[nH]3)no2)c(Cl)c1	-52.3	1.5	3.5	14.4	i	-7.2	1.3	9.7
CN1CCC(OC2c3ccccc3CCc3ccccc32)CC1	-7.3	-1.7	2.6	x	x	-20.8	x	x
COc1cc(/C=N/O)cc(Cl)c1OC	-29.6	-3.5	1.4	6.1	i	-17.5	10.6	8.9
COc1ccccc1N=NNc1ccccc1OC	-168.5	9.4	-6.4	x	x	5.3	x	x
CSCCC(NC(=O)C1CCC(C)CC1)C(=O)OCC(=O)c1ccc(Cl)cc1 (configuration not stated)	23.3	-0.4	-2.0	-5.4	i	x	-2.2	1.4
CC1CCCC(C)N1/N=C/c1ccc(O)cc1 (configuration not stated)	9.6	-2.6	1.8	-9.2	i	-17.7	-6.4	-0.9
O=c1c2c(-c3ccco3)csc2nc(SCc2cn3cccnc3n2)n1-c1ccccc1	x	-15.5	-3.5	-7.4	i	-4.0	88.9*	65.9*
Cc1ccc2c(C)c(C(=O)N(C)Cc3nccn3C)oc2c1C	x	0.8	-1.9	-5.2	i	-13.9	1.0	-2.0
CCc1ccc(-c2nc(CS(=O)CC(=O)NCCc3ccccc3)c(C)o2)cc1 (configuration not stated)	-3.5	0.2	-0.7	-6.3	i	-6.0	4.2	0.7
CCCn1c(C)cc(C(=O)COC(=O)c2nccnc2N)c1C	1.3	1.9	1.9	3.0	i	x	30.6	11.8
O=C(NCSc1ccccc1)c1ccccc1	-76.6	3.7	1.4	10.2	i	-33.3	x	x
COc1ccc(-n2nc(C(=O)NCC(=O)NCCN(C)C)c3ccccc3c2=O)c(OC)c1	-14.2	0.1	-1.0	-9.5	i	-19.1	3.2	4.4
CCC(C)NCCOCCOc1ccc(F)cc1 (configuration not stated)	8.3	-2.3	-3.3	4.8	i	-18.6	-7.7	6.6
CN1CCN(C(=O)Nc2ccc3c(c2)N(C)C(=O)c2ccccc2S3)CC1	6.2	-0.7	-1.1	-4.0	i	x	9.6	-2.6
COc1ccc(NC(=O)c2nc3nc(C)cc(C(F)F)n3n2)cc1OC	-5.1	7.6	4.6	-9.9	i	-7.1	-3.7	7.9
CC(C)(C)c1ccc(C(=O)NNC(=S)NCc2ccco2)cc1	-2.5	3.4	-3.8	-11.2	i	x	-0.3	1.8
COCCN(CC1CCCN(C2Cc3ccccc3C2)C1)C(=O)CSC (configuration not stated)	-0.3	-1.6	0.8	-2.6	i	-10.1	-1.4	-0.4
CCN(CC)C(=O)[C@H]1C[C@H](CC(=O)NCc2ccc(OC)c(OC)c2)C(=O)N2CCc3c([nH]c4cc(CCC(=O)N(C)C)ccc34)[C@]12C	11.6	-1.1	2.4	x	x	12.4	x	x
COc1ccc(OC)c(N(CCN2C(=O)c3ccccc3C2=O)C(=O)CCl)c1	-16.4	-23.2	-20.4	x	x	14.8	x	x
COc1ccc(CN2CCN(C(=O)c3ccccc3C(=O)c3ccccc3)CC2)cc1F	-21.1	1.8	-2.0	x	x	-7.7	x	x
COc1ccc2[nH]c3nc(SCC(=O)NNC(=O)c4ccc(OC)c(OC)c4)nnc3c2c1	0.3	0.6	-0.5	20.2	i	-15.0	-1.6	1.6
